AF4-AF9 inh = blocks AF4 peptide binding to human AF9; AID 651704; 0.47% of 350,000 active; AlphaScreen, biotin-AF4 peptide binding to FLAG-AF9; inhibition, % at 10 µM;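 active = every replicate reaching a set inhibition limit, whatever the replicate mean, cut at about 25% in these data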;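 also: 0% = plate neutral control median and 100% = total signal loss; the record names both 10 and 1 µM as test concentration; the first replicate is given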
Target sequence (P42568 whole entry, looked up): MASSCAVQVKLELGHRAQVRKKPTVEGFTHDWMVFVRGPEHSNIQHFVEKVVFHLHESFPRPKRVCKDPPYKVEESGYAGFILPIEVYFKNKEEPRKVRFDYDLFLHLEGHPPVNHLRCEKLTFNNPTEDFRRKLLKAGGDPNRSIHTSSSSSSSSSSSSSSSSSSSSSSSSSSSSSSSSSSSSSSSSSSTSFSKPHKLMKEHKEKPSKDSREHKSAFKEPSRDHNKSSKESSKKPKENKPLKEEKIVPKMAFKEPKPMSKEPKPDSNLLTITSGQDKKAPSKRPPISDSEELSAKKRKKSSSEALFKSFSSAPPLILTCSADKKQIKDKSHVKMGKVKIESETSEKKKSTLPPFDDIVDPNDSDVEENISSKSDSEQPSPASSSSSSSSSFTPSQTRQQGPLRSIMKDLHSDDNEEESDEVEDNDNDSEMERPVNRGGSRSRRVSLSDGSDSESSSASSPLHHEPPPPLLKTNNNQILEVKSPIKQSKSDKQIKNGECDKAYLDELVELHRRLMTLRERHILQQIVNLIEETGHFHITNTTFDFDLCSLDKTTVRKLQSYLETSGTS
* hit, by the source's call. An excerpt. The share of hits here may be higher or lower than overall.

Preview:
SMILES | AF4-AF9 inh
CO[C@H]1CN(C)C(=O)c2ccc(NC(=O)c3ccccc3F)cc2OC[C@H](C)N(CC2CCOCC2)C[C@H]1C | -0.9
C[C@H](CO)N1C[C@H](C)[C@H](CN(C)Cc2ccc(-c3ccccc3)cc2)Oc2cc(C#C[C@@H](C)O)ccc2S1(=O)=O | 2.5
COc1ccccc1CNC(=O)C[C@H]1C=C[C@H](NC(=O)CC2CC2)[C@H](CO)O1 | 0.2
O=C(c1cccc(F)c1)N1CCCCN2[C@H](CO)[C@H](c3ccc(-c4cncnc4)cc3)[C@@H]2C1 | -9.6
CC(=O)c1ccc(OCC(=O)N(C)C2CCS(=O)(=O)C2)cc1 (stereo not given) | -2.4
C[C@H](NC(=O)C[C@H]1CC[C@H]2[C@@H](COC[C@H](O)CN2C(=O)Nc2cccc(F)c2)O1)c1ccccc1 | -2.0
O=C(C[C@@H]1C[C@H]2c3cc(NC(=O)Nc4ccccc4)ccc3O[C@H]2[C@@H](CO)O1)NC1CCCC1 | 1.8
COc1cc(OC)nc(C(NC(=O)C2CCN(Cc3ccc(Oc4ccccc4)cc3)CC2)c2ccccc2C)n1 (stereo not given) | 2.8
C[C@H](CO)N1C[C@H](C)[C@H](CN(C)S(=O)(=O)c2ccccc2)Oc2c(NC(=O)Nc3ccc(F)cc3)cccc2C1=O | 0.2
C[C@@H]1CN([C@@H](C)CO)C(=O)c2cc(NS(=O)(=O)c3cn(C)cn3)ccc2O[C@@H]1CN(C)S(=O)(=O)c1ccccc1 | -12
CO[C@H]1CC[C@@H]2CCN(C)C(=O)[C@H](C)N(C)C(=O)c3cccc(C#N)c3OC[C@H]1O2 | 1.5
C[C@@H]1CN([C@@H](C)CO)C(=O)c2cc(NC(=O)c3ccncc3)ccc2O[C@@H](C)CCCCO[C@H]1CN(C)Cc1ccncc1 | -3.2

The list itself, repeating the preview:
SMILES | AF4-AF9 inh
CO[C@H]1CN(C)C(=O)c2ccc(NC(=O)c3ccccc3F)cc2OC[C@H](C)N(CC2CCOCC2)C[C@H]1C | -0.9
C[C@H](CO)N1C[C@H](C)[C@H](CN(C)Cc2ccc(-c3ccccc3)cc2)Oc2cc(C#C[C@@H](C)O)ccc2S1(=O)=O | 2.5
COc1ccccc1CNC(=O)C[C@H]1C=C[C@H](NC(=O)CC2CC2)[C@H](CO)O1 | 0.2
O=C(c1cccc(F)c1)N1CCCCN2[C@H](CO)[C@H](c3ccc(-c4cncnc4)cc3)[C@@H]2C1 | -9.6
CC(=O)c1ccc(OCC(=O)N(C)C2CCS(=O)(=O)C2)cc1 (stereo not given) | -2.4
C[C@H](NC(=O)C[C@H]1CC[C@H]2[C@@H](COC[C@H](O)CN2C(=O)Nc2cccc(F)c2)O1)c1ccccc1 | -2.0
O=C(C[C@@H]1C[C@H]2c3cc(NC(=O)Nc4ccccc4)ccc3O[C@H]2[C@@H](CO)O1)NC1CCCC1 | 1.8
COc1cc(OC)nc(C(NC(=O)C2CCN(Cc3ccc(Oc4ccccc4)cc3)CC2)c2ccccc2C)n1 (stereo not given) | 2.8
C[C@H](CO)N1C[C@H](C)[C@H](CN(C)S(=O)(=O)c2ccccc2)Oc2c(NC(=O)Nc3ccc(F)cc3)cccc2C1=O | 0.2
C[C@@H]1CN([C@@H](C)CO)C(=O)c2cc(NS(=O)(=O)c3cn(C)cn3)ccc2O[C@@H]1CN(C)S(=O)(=O)c1ccccc1 | -12
CO[C@H]1CC[C@@H]2CCN(C)C(=O)[C@H](C)N(C)C(=O)c3cccc(C#N)c3OC[C@H]1O2 | 1.5
C[C@@H]1CN([C@@H](C)CO)C(=O)c2cc(NC(=O)c3ccncc3)ccc2O[C@@H](C)CCCCO[C@H]1CN(C)Cc1ccncc1 | -3.2
O=C(C[C@@H]1C[C@@H]2c3cc(NC(=O)Nc4ccc(F)cc4)ccc3O[C@@H]2[C@H](CO)O1)NCC(F)(F)F | -1.9
O=C(CC1CC1)N1CC(=O)N2[C@H](CO)[C@H](c3ccc(C#Cc4cccc(F)c4)cc3)[C@H]2C1 | -4.3
C[C@@H]1CN([C@H](C)CO)C(=O)c2cc(C3=CCCCC3)cnc2O[C@H]1CN(C)C(=O)c1ccc(F)cc1 | 2.3
O=C(c1cccnc1)N1CC[C@@H]2[C@@H](CO)Nc3ccc(-c4ccccc4)cc3[C@@H]21 | 1.6
O=C(Nc1ccccc1)c1cc(C2CCCN(C(=O)C/C=C/c3ccccc3)C2)on1 (stereo not given) | -0.4
COc1cccc(-c2cnc3c(c2)C(=O)N([C@@H](C)CO)C[C@H](C)[C@H](CN(C)C(=O)CN(C)C)O3)c1 | -22
COc1ccc(NC(=O)N(C)C[C@H]2Oc3ncc(C#C[C@H](C)O)cc3C(=O)N([C@@H](C)CO)C[C@H]2C)cc1 | -2.6
CCN1[C@@H]2c3ccc(-c4ccc(F)cc4)c(=O)n3C[C@@H]2[C@@H](CO)[C@@H]1C(=O)NC1CCC1 | -0.5
CC(=O)Nc1ccc(-c2ccnc3c2CC(C(=O)NCC2CC2)O3)cc1 (stereo not given) | -2.1
C[C@H](CO)N1C[C@H](C)[C@H](CN(C)S(=O)(=O)c2ccc(C#N)cc2)Oc2ncc(C#Cc3ccc(C(F)(F)F)cc3)cc2C1=O | -1.7
O=C(NCC[C@@H]1CC[C@H](NS(=O)(=O)Cc2ccccc2)[C@@H](CO)O1)C1CCCC1 | 1.4
O=C(C[C@@H]1CC[C@@H]2[C@H](COC[C@H](O)CN2C(=O)Nc2ccc(Cl)cc2)O1)NCC1CCCCC1 | -20
O=C(C1=C[C@H](c2coc3ccccc3c2=O)C[C@H](OCc2ccc(CO)cc2)O1)N1CCCCCCC1 | -6.7

Following part
SMILES | AF4-AF9 inh
C[C@H](NC(=O)C[C@@H]1CC[C@H]2[C@@H](COc3ccc(NS(=O)(=O)c4ccc(Cl)cc4)cc3C(=O)N2C)O1)c1ccccc1 | -0.5
Cc1cccc(N(C)c2cc(-c3ccc(F)cc3)nc3ccnn23)c1 | -16
C[C@@H]1CN([C@@H](C)CO)C(=O)c2cccc(NC(=O)C3CCOCC3)c2O[C@@H]1CN(C)CC1CCCCC1 | -3.2
OC[C@@H]1CN(Cc2ccc(F)cc2)C[C@H](n2cnc3c(Nc4ccccc4)ncnc32)O1 | 2.8
C[C@@H]1CN([C@H](C)CO)S(=O)(=O)c2ccc(-c3ccc(C(=O)N(C)C)cc3)cc2O[C@H]1CN(C)Cc1ccccc1C(=O)O | 7.7
CCC(=O)Nc1ccc2c(c1)OC[C@H](C)N(Cc1ccncc1)C[C@@H](C)[C@H](OC)CN(C)C2=O | -18
C/C=C/c1ccc2c(c1)O[C@H](CN(C)C(=O)NC1CCCCC1)[C@H](C)CN([C@H](C)CO)S2(=O)=O | 0.6
CCC(c1nnnn1-c1ccc2c(c1)OCCO2)N1CCN(C/C=C/c2ccccc2)CC1 (stereo not given) | 10
CCS(=O)(=O)N1CCC2(CC1)CN(C)[C@H](CO)c1c2c2ccc(OC)cc2n1C | -0.9
COc1ccc(C(CNC(=O)c2cccc(S(=O)(=O)Nc3ccc(Br)cc3)c2)N(C)C)cc1 (stereo not given) | 1.7
CSCCNC(=O)C1(C)CCN1C(=O)c1ccc(C(C)(C)C)cc1 (stereo not given) | 5.0
C[C@H]1CN([C@@H](C)CO)C(=O)Cc2cc(NC(=O)Nc3ccc(F)cc3)ccc2O[C@H]1CN(C)Cc1ccc(C(F)(F)F)cc1 | 2.6
N#C[C@H]1[C@H](c2ccc(C3=CCCCC3)cc2)[C@H](CO)N1C(=O)NC1CCCCC1 | -0.9
Cc1ccc(C(NC(=O)C2CCN(CCCOc3ccccc3)CC2)c2ccccn2)cc1 (stereo not given) | 0.0
C[C@@H]1CN([C@@H](C)CO)C(=O)c2cccc(NS(=O)(=O)c3cccs3)c2O[C@@H]1CN(C)S(=O)(=O)c1ccc(Cl)cc1 | -1.4
COC(=O)c1ccc(CN2CC(=O)N3[C@H](C2)[C@@H](c2ccc(Br)cc2)[C@@H]3CO)cc1 | 1.9
COc1ccc(-c2coc3cc(OC(C)=O)c(OC)cc3c2=O)cc1 | 0.7
C[C@@H]1CCCCO[C@@H](CN(C)S(=O)(=O)c2cccs2)[C@@H](C)CN([C@@H](C)CO)C(=O)c2cc(NC(=O)Nc3ccccc3)ccc2O1 | -0.3
C/C=C/c1cnc2c(c1)C(=O)N([C@@H](C)CO)C[C@H](C)[C@@H](CN(C)S(=O)(=O)c1cccs1)O2 | 2.0
CC(C)(C)OC(=O)N(CCc1ccccc1)Cc1cccc(OCc2cccc(NC(=O)C3CCCC3)c2)c1 | -2.8
CCCC#Cc1ccc([C@@H]2[C@@H](C#N)N(C(=O)C3CC3)[C@H]2CO)cc1 | -0.1
COc1ccc(-c2coc3c(C(=O)NCCN(C)C)cccc23)c(C)c1 | 8.5
CO[C@@H]1CN(C)C(=O)c2ccc(NS(C)(=O)=O)cc2OC[C@@H](C)N(CC2CC2)C[C@@H]1C | 0.2
COc1ccccc1C(=O)N1C[C@@H]2[C@H](c3ccccc31)[C@H](CO)N2C(=O)Cc1cccnc1 | 0.2
CCNC(=O)C[C@H]1C=C[C@@H](NC(=O)NC2CCCCC2)[C@@H](CO)O1 | -4.6

Further records
SMILES | AF4-AF9 inh
COc1ccc(NC(=O)Nc2ccc3c(c2)C(=O)N([C@H](C)CO)C[C@H](C)[C@H](CN(C)C(=O)NC2CCCCC2)O3)cc1 | -1.3
CCCC#Cc1cnc2c(c1)C(=O)N([C@@H](C)CO)C[C@@H](C)[C@@H](CN(C)C(=O)c1ccc(F)cc1)O2 | -0.8
COc1ccc(C(C)=O)cc1CC1(C)C(=O)Nc2ccc(-c3cccc(C(F)(F)F)c3)cc21 (stereo not given) | 0.3
COc1ccccc1Cc1c(-c2ccc(C)cc2)nc2c3ccccc3ccn12 | 2.1
CC1(C(=O)NS(=O)(=O)c2ccc(F)cc2F)CCN1C(=O)CC1CC1 (stereo not given) | -1.9
CC(C)NC(=O)N(C)C[C@H]1Oc2ccc(NC(=O)Nc3ccc(F)cc3)cc2CC(=O)N([C@@H](C)CO)C[C@H]1C | -0.6
COc1ccc2c3c([nH]c2c1)[C@@H](CO)N(C(=O)CC1CC1)CC31CN(C(=O)c2ccccc2)C1 | -2.3
CO[C@@H]1CN(C)C(=O)c2ccc(NC(=O)c3cc(C)on3)cc2OC[C@H](C)N(C(C)=O)C[C@H]1C | -2.5
COc1ccc(NC(=O)N(C)C[C@H]2Oc3ccc(NS(=O)(=O)c4cn(C)cn4)cc3C(=O)N([C@H](C)CO)C[C@H]2C)cc1 | -3.5
Cc1ccc(S(=O)(=O)N[C@H]2CC[C@@H](CC(=O)NCCc3ccncc3)O[C@H]2CO)cc1 | 0.2
COc1ccc2c3c(n(C)c2c1)[C@@H](CO)N(S(C)(=O)=O)CC31CCN(Cc2cncnc2)CC1 | 15
C[C@@H](O)C#Cc1ccc2c(c1)O[C@H](CN(C)Cc1ccncc1)[C@@H](C)CN([C@@H](C)CO)S2(=O)=O | 0.6
C[C@H](CO)N1C[C@H](C)[C@@H](CN(C)C(=O)Cc2ccccc2)OCCCC[C@H](C)Oc2ccc(NS(=O)(=O)c3ccc(Cl)cc3)cc2C1=O | -5.7
COc1ccc(-c2ccc3c(c2)O[C@H](CN(C)CC2CCOCC2)[C@@H](C)CN([C@H](C)CO)S3(=O)=O)cc1 | 1.2
C[C@H](CO)N1C[C@H](C)[C@H](CN(C)CC2CC2)Oc2c(NC(=O)c3ccncc3)cccc2C1=O | -1.9
C[C@H](CO)N1C[C@H](C)[C@@H](CN(C)S(=O)(=O)c2ccccc2)OCCCC[C@H](C)Oc2ccc(NS(C)(=O)=O)cc2C1=O | 0.1
C[C@H](CO)N1C[C@H](C)[C@@H](CN(C)CC2CCCC2)Oc2ncc(C#CCc3ccccc3)cc2C1=O | 14
CO[C@H](CN(C)C(=O)C1CCOCC1)[C@@H](C)CN(C(=O)Nc1ccc(C(F)(F)F)cc1)[C@@H](C)CO | 0.1
CCC(=O)Nc1ccc2c(c1)C(=O)N(C)[C@H]1CC[C@H](CC(=O)Nc3cccc(F)c3)O[C@@H]1CO2 | -0.6
N#C[C@@H]1[C@H](c2ccc(-c3cccnc3)cc2)[C@H](CO)N1C(=O)C1CCC1 | -0.7
COc1cccc(S(=O)(=O)Nc2ccc3c(c2)[C@@H]2C[C@@H](CC(=O)NCc4ccc(Cl)cc4)O[C@H](CO)[C@@H]2O3)c1 | 4.7
C[C@H]1CN([C@@H](C)CO)C(=O)c2cccc(NS(C)(=O)=O)c2O[C@@H]1CN(C)Cc1ccc(C(=O)O)cc1 | -0.3
O=S(=O)(N[C@@H]1CC[C@@H](CCn2cc(-c3ccccn3)nn2)O[C@@H]1CO)c1cccc(F)c1 | 1.0
O=C(Nc1ccccc1F)N[C@H]1CC[C@@H](CCNC(=O)C2CCCC2)O[C@@H]1CO | -1.3
Cc1noc(C)c1S(=O)(=O)Nc1ccc2c(c1)CC(=O)N([C@H](C)CO)C[C@@H](C)[C@H](CN(C)Cc1ccc(Cl)c(Cl)c1)O2 | 4.0

Further entries.
SMILES | AF4-AF9 inh
COc1ccc2c3c([nH]c2c1)[C@H](CO)N(C(=O)NC1CCCC1)CC31CCN(C(=O)Nc2cccc(F)c2)CC1 | -2.0
C[C@H](CO)N1C[C@H](C)[C@H](CN(C)S(C)(=O)=O)Oc2c(NC(=O)c3cnccn3)cccc2C1=O | -6.6
C[C@@H]1CCCCO[C@H](CN(C)C(=O)Nc2ccccc2)[C@H](C)CN([C@@H](C)CO)C(=O)c2cc(NC(=O)Nc3ccc(C(F)(F)F)cc3)ccc2O1 | -4.8
C[C@@H]1CCCCO[C@@H](CN(C)Cc2ccc(Cl)c(Cl)c2)[C@@H](C)CN([C@@H](C)CO)C(=O)c2cc(NS(=O)(=O)c3ccc(Cl)cc3)ccc2O1 | -0.2
COc1ccc2c3c([nH]c2c1)[C@@H](CO)N(C(=O)C1CC1)CC31CN(Cc2nccs2)C1 | 1.8
CO[C@@H]1CN(C)C(=O)c2cc(NS(=O)(=O)Cc3ccccc3)ccc2OC[C@@H](C)N(Cc2cccnc2)C[C@H]1C | 3.9
C[C@@H]1CN([C@H](C)CO)C(=O)c2cccc(NS(=O)(=O)c3cccs3)c2O[C@@H]1CN(C)Cc1ccc(-c2ccccc2)cc1 | 0.5
COc1ccccc1C#Cc1ccc([C@H]2[C@H](CO)N3CCCCN(C(=O)C4CC4)C[C@@H]23)cc1 | 6.1
CCn1c2c(n(C(C)=O)c1=O)C[C@@H](c1ccccc1)[C@@H](C)[C@@H](C(=O)N1CCCC1)C2 | 0.1
